VACV Venus inh: vaccinia inhibition (Venus reporter). hit rate 0.46% among 330,000. AID 720580. Potency, µM (series often up to 36.5 µM), for inactives: at the highest dose activity change, negative = inhibition, actives largely listed as inhibitors. Vaccinia virus Venus reporter expression, fluorescence; active means well fitted inhibition curve with a large enough effect; inconclusive means small, poorly fitted or top-dose-only effect; inactive means no such curve, though single readings can be large or run the other way; tested in A549 cells; further: nearly all actives have a fitted effect of over 30% in size; inactives centre near -10
VACV mCherry inh: vaccinia inhibition (mCherry reporter). Vaccinia virus mCherry reporter infection, fluorescence; about a quarter of the inactives have no number. Potency, µM (top dose mostly 36.5 µM), without a hit: top-dose activity change, negative = inhibition, usual class: inhibitors. hit rate 0.63% among 310,000; active = well fitted inhibition curve with a large enough effect; inconclusive = small, poorly fitted or top-dose-only effect; inactive = no such curve, though single readings can be large or run the other way; tested in A549 cells; further: nearly all actives have a fitted effect of over 35% in size; inactives centre near -10
* hit, by the source's call; i = inactive; u = inconclusive; x = no result given; & = joins results of further samples; [ ] = remark or other dose. On the % scale 0 is the no-effect control and ±100 the full control effect; potency means the concentration at half of the fitted maximal effect.

SMILES	VACV Venus inh	VACV mCherry inh
COc1ccc(C(=O)NNC(=S)NC(=O)C(C)(C)C)cc1	u	4µM*
O=C(NCc1ccc(Cl)nc1)c1csc([C@@H]2O[C@H](CO)[C@H](O)[C@H](O)[C@H]2O)n1	1%	33%[activator]
CC1CN(C(=O)COC(=O)[C@@H]2CC(O)CN2S(=O)(=O)c2ccc3c(c2)OCCO3)CC(C)O1 (stereo not given in full)	0%	-5%
O=C(Nc1ccc(N2CCOCC2)c(F)c1)c1ccncc1	-5%	x
COc1ccccc1-c1ccnc(-n2ncc(C(=O)NC(C)(C)CO)c2C2CC2)n1	-16%	-3%
O=C(c1cc2ccccc2oc1=O)N1CCN(C(=O)C2CCCO2)CC1 (stereo not given)	-18%	-9%
COc1cccc2c(=O)n(CC(=O)NCCc3ccccc3)ccc12	3%	-11%
O=C(Cc1c(-c2ccccc2)nc2ccc(Br)cn12)N1CCCC1	7%	-6%
O=C1c2ccccc2C(Nc2ccc(S(=O)(=O)N3CCOCC3)cc2)N1Cc1ccco1 (stereo not given)	-21%	i
COc1ccc(CCNC(=O)c2cc(-c3cc(C)ccc3O)n[nH]2)cc1OC	-22%	x
O=C(CCn1c(=O)c2cccn2c2cccnc21)Nc1ccccc1C(F)(F)F	-8%	-11%
Cc1csc(NC(=O)Cc2c(F)cccc2Cl)n1	-2%	-11%
CC(=O)Nc1ccc2nc(SCCOc3cc(C)cc(C)c3)sc2c1	-20%	-21%
O=C(NCc1ccccc1F)C1CCN(Cc2cc3ccccc3n2Cc2cccc(Cl)c2)CC1	1%	-12%
CCOC(=O)c1c(C)[nH]c(C)c1S(=O)(=O)NCC(=O)Nc1cc(Cl)ccc1OC	-9%	-3%
Cc1ccc(NC(=O)C(C)N2CCCC2)cc1Cl (stereo not given)	-7%	-2%
O=C(COC(=O)c1ccco1)c1ccc(F)cc1	-9%	-19%
O=C(c1cc[n+]([O-])cc1)N1CCCC(N2CCN(c3cccc(C(F)(F)F)c3)CC2)C1 (stereo not given)	-13%	i
COC(=O)c1ccc(NC(=O)CSc2nncn2-c2cccnc2)cc1	-13%	-5%
CC(C)CCN(C(=O)c1ccc(N2CCCC2=O)cc1)c1c(N)n(Cc2ccccc2)c(=O)[nH]c1=O	-3%	i

The results go on:
SMILES	VACV Venus inh	VACV mCherry inh
COc1ccc(Nc2nc3nonc3nc2N2CCCCC2)cc1	20%	11%
COc1cccc(C(O)c2nc3ccccc3n2C)c1 (stereo not given)	-15%	-9%
COc1ccc(Cl)cc1NC(=O)Cc1coc2c(C)c(C)ccc12	-5%	-8%
CCOC(=O)COc1cccc2c(=O)n(CC(=O)N3CCCc4ccccc43)ccc12	2%	0%
O=C(COC(=O)c1n[nH]c2ccccc12)c1cc(F)ccc1F	-1%	5%
N#CC(=C1NC(=O)c2ccccc21)c1nc2ccccc2n1CCO	-13%	13%
Cc1cccc(CS(=O)(=O)CC2Nc3ccc(C(=O)NCc4ccccc4Cl)cc3NC2=O)c1 (stereo not given)	-1%	-12%
O=C(NCc1cccs1)c1nn(-c2ccccc2)nc1CO	-28%	-20%
COc1ccc(-c2onc(C)c2-c2ccccc2)c(O)c1	u	u
COc1ccc(C(CNC(=O)Cc2c(F)cccc2Cl)N2CCCCC2)cc1 (stereo not given)	-10%	-1%
CC(=O)c1ccc(OCc2cc(C(=O)N3CCCCC3c3cccnc3)no2)cc1 (stereo not given)	-9%	-3%
Cc1onc(-c2ccccc2)c1C(=O)N/N=C/c1cccc(O)c1	-7%	-13%
O=C(Cc1ccc(Br)c2ccccc12)N/N=C/c1ccccn1	-1%	-8%
Cc1cc(SCC(=O)OCC(=O)NCC2CCCO2)c(C)cc1Br (stereo not given)	-8%	i
COc1cc(S(=O)(=O)NCCc2ccc3c(c2)OCO3)ccc1-n1cnnn1	-12%	-21%
COc1cc2nc(Nc3ccc(C)c(C)c3)nc(N)c2cc1OC	u	-27%
COc1cccc2cc(C(=O)N3CCc4ccccc4C3)c(=O)oc12	-8%	x
CCOC(=O)[C@H]1[C@H]2COc3ccc(Br)cc3[C@@H]2N2C(=O)N(c3ccccc3)C(=O)[C@@]12C	-6%	i
CC(C)c1ccccc1NC(=S)NCc1nc2ccccc2[nH]1	-3%	-1%
O=[N+]([O-])c1ccc(N/N=C2\CC3CC=CC23)c([N+](=O)[O-])c1 (stereo not given)	2%	-1%

Next part, starting with the last 5 of the part before.
SMILES	VACV Venus inh	VACV mCherry inh
COc1cc2nc(Nc3ccc(C)c(C)c3)nc(N)c2cc1OC	u	-27%
COc1cccc2cc(C(=O)N3CCc4ccccc4C3)c(=O)oc12	-8%	x
CCOC(=O)[C@H]1[C@H]2COc3ccc(Br)cc3[C@@H]2N2C(=O)N(c3ccccc3)C(=O)[C@@]12C	-6%	i
CC(C)c1ccccc1NC(=S)NCc1nc2ccccc2[nH]1	-3%	-1%
O=[N+]([O-])c1ccc(N/N=C2\CC3CC=CC23)c([N+](=O)[O-])c1 (stereo not given)	2%	-1%
COc1ccc(OC)c(-n2c(SCC(=O)NCc3ccco3)nnc2-c2c[nH]c3ccccc23)c1	-1%	i
Cc1ccc(C)c(N2CCN(C(=O)c3cc(S(=O)(=O)N4CCCCCC4)cn3C)CC2)c1	-27%	u
O=[N+]([O-])c1ccccc1CNC(Cc1ccccc1)c1ccccc1 (stereo not given)	-15%	i
O=C(CSc1nnc2c(n1)[nH]c1ccc(F)cc12)NCc1ccc(F)cc1	-5%	5%
CN(C)C(=O)C[C@@H]1CC[C@@H](NC(=O)C2CCC2)[C@@H](CO)O1	-12%	-5%
O=C(CSc1ncnc2c1cnn2-c1ccc(Cl)cc1)NCc1ccc2c(c1)OCO2	-15%	i
O=C(CCN1CCOCC1)c1ccc(Br)cc1	-5%	i
CC1(C)CN(Cc2cccnc2)C(=O)[C@H]1CC(=O)Nc1ccc(Br)cc1	-8%	-25%
CN(Cc1ccc(F)cc1)S(=O)(=O)c1nnc(NC(=O)c2ccccc2)s1	-12%&-19%	-8%&-2%
CCn1c2ccccc2c2cc(/C=C(/C#N)C(N)=S)ccc21	-26%	-23%
CCOC(=O)CSc1nc2sc3c(c2c(=O)n1-c1ccccc1)CC(C(C)C)OC3 (stereo not given)	-1%	-5%
CCN(CC)C(=O)Cn1c(SCCOc2ccc(Cl)cc2)nc2ccccc21	-14%	-13%
COc1ccc2c(c1)c(C(=O)O)c(C)n2CC(C)C	-5%	-15%
CC(=O)Nc1ccc(-c2ccnc3c2CC(C(=O)NC(C)C)O3)cc1 (stereo not given)	-1%	-2%
COCCOc1ccc(C(F)(F)F)cc1N	-2%	i
CC(C)c1nnc(NC(=O)CCC(=O)NCc2ccco2)s1	-1%	i
Cc1ccccc1C(=O)Nc1ccc(S(=O)(=O)N2CCC(c3nc4ccccc4s3)CC2)cc1	-21%	-19%
COc1cccc(C2(O)CCN(CC(=O)NCC3CC3)CC2)c1	0%	i
CN1CCN(NC(=O)c2cccc(F)c2)CC1	-21%	x
CC(Sc1ncnc2ccccc12)C(=O)Nc1ccc2c(c1)OCCO2 (stereo not given)	u	u

4 compounds already listed, ordered by molecular weight, lowest first.
SMILES	VACV Venus inh	VACV mCherry inh
CN1CCN(NC(=O)c2cccc(F)c2)CC1	-21%	x
O=[N+]([O-])c1ccccc1CNC(Cc1ccccc1)c1ccccc1 (stereo not given)	-15%	i
CC1(C)CN(Cc2cccnc2)C(=O)[C@H]1CC(=O)Nc1ccc(Br)cc1	-8%	-25%
COc1ccc(OC)c(-n2c(SCC(=O)NCc3ccco3)nnc2-c2c[nH]c3ccccc23)c1	-1%	i

Next entries.
SMILES	VACV Venus inh	VACV mCherry inh
Cc1cc(C)cc(OCC(=O)O/N=C(\N)c2cccnc2)c1	-1%	i
COc1cc(/C=N/NC(=O)c2sc(N)c(C#N)c2C)cc(Br)c1O	-11%	u
Cc1noc(C)c1COc1ccccc1C(=O)N1CCN(S(=O)(=O)c2ccccc2C#N)CC1	-9%	i
OC(CCNCCc1c[nH]c2ccccc12)C(F)(F)Cl (stereo not given)	-8%	u
Cc1cccc(-c2nc3nc(C)cc(NCc4ccccc4Cl)n3n2)c1	21%	-18%
NC(=O)CSc1nnc(COc2ccc3ccccc3c2)o1	-9%	-4%
CCn1c(SCC(=O)c2cc(C)n(CC3CCCO3)c2C)nc2ccccc21 (stereo not given)	-5%	-14%
Cc1c(CC(C)C)nc(N)c(C#N)c1-c1ccccc1	u	-8%[1.46 µM]
O=C(COc1ncnc2ccccc12)c1ccc2c(c1)OCCO2	-9%	-18%[1.46 µM]
CC1(CCc2ccccc2)NC(=O)N(CC(=O)N2CC(=O)Nc3ccccc32)C1=O (stereo not given)	-5%	i
Cn1cnnc1SCC(=O)n1c2ccccc2c2ccccc21	-16%	x
CN1CCN(c2ccc(NC(=O)c3ccc(Oc4ccccc4)cc3)cc2)CC1	-24%	-7%
Cc1ccc(-n2[nH]c(C)c(C=Nc3ccc(C)cn3)c2=O)cc1	0%	-17%
COc1ccc(CN(C)C(=O)COC(=O)c2ccc(-c3ccccc3)cc2)c(OC)c1OC	-11%	-17%
O=C(NCCOc1ccccc1)c1cccc(S(=O)(=O)NCc2ccccc2)c1	-27%	u
COc1cccc2c1C(=O)CC1C2CCC2CC(=O)CCC21C (stereo not given)	-9%	i
Cn1cccc1C(=O)OCc1ccc(F)cc1	-5%	i
CCOc1ccc(NC(=O)CC(NCc2ccccn2)C(=O)O)cc1 (stereo not given)	-7%	i
CNC(=O)CCn1nc(-c2ccc(C)cc2)c2ccccc2c1=O	-9%	-2%
COc1ccc([N+](=O)[O-])cc1NC(=O)c1cccnc1	-8%	i

(cont.)
SMILES	VACV Venus inh	VACV mCherry inh
O=S(=O)(Nc1ccc(NS(=O)(=O)c2ccccc2)c2ccccc12)c1ccccc1	-2%	-2%
CCc1ccc(Sc2cc(C(=O)NCCCN3CCCC(C)C3)c3ccccc3n2)cc1 (stereo not given)	-11%	-5%
c1csc(C2Nc3cccc4cccc(c34)N2)c1	11%	-5%
CN(C)C(=S)NC(=O)C(c1ccccc1)c1ccccc1	-8%	-21%
CC(C)(C)NC(=O)COC(=O)c1ccc(S(=O)(=O)N2CCCCCC2)cc1	-4%	-8%
O=C(c1ccc(Cl)cc1)C1CCN(C(=O)NC2CCCCC2)CC1	u	-36%
COc1ccc(-c2cc3ccc(O)c(CN4CCCC4)c3oc2=O)cc1	-5%[7.34 µM]	-4%[7.34 µM]
CSc1ncc(C(=O)N2CCN(c3cc(C)ccc3C)CC2)c(C)n1	-2%	-9%
CCNC(=S)N(CCc1c(C)[nH]c2ccc(OC)cc12)Cc1cccnc1	-13%	-18%
Cn1c(CSc2nc3ccccc3s2)nnc1SCC(=O)NCCN1CCOCC1	-10%	i
CC(c1ccccc1)C(CC(=O)O)C(=O)NC1CCCCC1 (stereo not given)	7%	3%
CCOC(=O)c1ccc(N2C(=O)c3n[nH]c(C)c3C2c2ccc(C(C)C)cc2)cc1 (stereo not given)	6%	-5%
COc1cccc(CNS(=O)(=O)c2cc3c(cc2C)n(C)c(=O)c(=O)n3C)c1	-5%	-9%
O=C1c2ccccc2-c2onc3ccc(NCc4ccco4)c1c23	159%[activator]	84%[activator]
CCC(CC)C(=O)NC12CC3CC(CC(C3)C1)C2	-4%	x
Cc1ccc(NC(=S)Nc2ccc3cn[nH]c3c2)c(C)c1	-1%	-18%
CC(C)Cc1cc(C(=O)NCC2Cc3cc(F)cc(-c4ccccn4)c3O2)no1 (stereo not given)	0%	-5%
COc1cc(CCC(=O)OCC(N)=O)cc(OC)c1OC	2%	-8%
CC(=O)c1c(C)[nH]c(C(=O)CSc2nc3ccccc3c(=O)n2CCCO)c1C	-8%	-13%
COc1ccc(NC(=O)Nc2nc(C(N)Cc3ccc(C(F)(F)F)cc3)cs2)cc1 (stereo not given)	-26%	-16%

Further entries follow.
SMILES	VACV Venus inh	VACV mCherry inh
CN1C[C@@H]2[C@@H]3C(=O)N(Cc4ccccc4)C(=O)[C@@H]3[C@](Cc3ccccc3)(C1=O)N2C(=O)c1ccc(Cl)cc1	-20%	-3%
Clc1nccc2c1ccc1ccccc12	-8%	-14%
CCN(CC)C(=O)c1ccc(NC(=O)COc2ccc([N+](=O)[O-])cc2Cl)cc1	-10%	-3%
CCOCCCNC(=O)C(c1ccc(C)cc1)N(Cc1ccc2c(c1)OCO2)C(=O)c1ccc(NC(C)=O)cc1 (stereo not given)	-8%	-3%
COc1cccc(-c2ccnc(-n3ncc(C(=O)NCc4cccnc4)c3C3CC3)n2)c1	-3%	-17%
O=C1/C(=N\S(=O)(=O)c2cccs2)C([n+]2cccc(Cc3ccccc3)c2)=C([O-])c2ccccc21	-27%	u
Cc1ccc2c(c1)CC1(CN2C)C(=O)OC2(CCCCC2)OC1=O	u	-28%
Cc1ccc(-c2nnc(Nc3ccc(OC(F)(F)Cl)cc3)c3ccccc23)cc1S(=O)(=O)NC(C)(C)CO	u	u
CCCCN1C(=O)NC(c2cccc([N+](=O)[O-])c2)C(C(=O)OCC)=C1C (stereo not given)	-19%	-11%
CCCOc1cccc(C(=O)N(Cc2ccc(C)o2)C2CCS(=O)(=O)C2)c1 (stereo not given)	-6%	-8%
CCc1ccc(C#CC2=CC(=O)CC(C)(C)C2)cc1	-21%	u
